# Screens (PubChem BioAssay)
# PrP 5UTR inh: inhibition of PrP 5' UTR reporter expression; inhibition, % (concentration not given with the values); cell-based PrP 5' UTR mRNA reporter, plate reader; 340,000 tested, 0.35% active;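 active = every replicate at 50% or more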;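 also: 0 = median of the neutral control wells; tested in H4 reporter cells; numbers are from one replicate; inactives centre near -14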
# Sa RN4220 lethal: kills Staphylococcus aureus RN4220. S. aureus RN4220 growth, OD600, 16 h. inhibition, % (test concentration not listed). 330,000 tested, 0.33% active;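 active = z-score of -3 or lower and OD600 up to 0.18 on both plates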;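 also: plate controls were untreated cells for no effect and reference antibiotic for full effect; stock transfer was 100 nL into about 80 µL; one replicate is shown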
# BJeLR viability: kills HRASV12-expressing BJeLR cells; BJeLR (HRASV12) viability, CellTiter-Glo ATP luminescence, 48 h; reference of the scale not given here; inhibition, % (concentration not given with the values); 300,000 tested, 0.17% active; AID 1554;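 active = replicate mean above 50%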;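 also: 50 nL library stock added to about 25 µL; numbers are from one replicate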
# Sa ugtP lethal: kills S. aureus RN4220 lacking UgtP. S. aureus RN4220 ugtP deletion, OD600 growth, 16 h; some inactives read as strong as hits. growth inhibition, % (concentration not given with the values). 330,000 tested, 0.54% active;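 active = z-score under -3 and OD600 up to 0.15 on both plates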;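 also: plate controls were untreated wells for no effect and antibiotic for full effect; wells of about 80 µL received 100 nL stock; the first replicate is given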
# Mtb hypoxia inh: reduces hypoxia-regulated biosensor signal in M. tuberculosis | M. tuberculosis hypoxia-regulated fluorescent reporter, fluorescence | fluorescence inhibition, % (test concentration not listed) | 300,000 tested, 0.1% active;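 active = 35 to 45% if threefold the growth effect, above 45% if 1.5-fold the growth effect; inactive = the rest, general growth blockers included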;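 also: wells of about 50 µL received 100 nL stock; 0% = vehicle wells and 100% = reference inhibitor wells; whole bacteria with a GFP reporter of the hypoxia response; strong numbers were not always called active; many hits fall short of the cut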
# Bead autofluor: flagged as autofluorescent in microsphere protease counterscreen; compound autofluorescence counterscreen, microsphere flow cytometry; stronger effect = higher value; fluorescence intensity (no concentration beside the values); 360,000 tested, 3.1% active;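 active = at least 3 SD above the mean of all compounds, about 16000 in these data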;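 also: 100 nL of 1 mM stock went into each well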
# Mtb hypoxia inh growth: recorded beside Mtb hypoxia inh, whose call it bears; growth inhibition, %; measured here: M. tuberculosis growth (absorbance);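 0% = vehicle and 100% = reference antibiotic; read after six days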
# Active calls of the source: *; . = not tested or not shown.
Compound | PrP 5UTR inh | Sa RN4220 lethal | BJeLR viability | Sa ugtP lethal | Mtb hypoxia inh | Mtb hypoxia inh growth | Bead autofluor
CCC1(C)CC(CCNS(=O)(=O)c2ccc(C)cc2)(c2ccc(C)cc2)CCO1 (centres undefined) | -2 | 21 | 4 | -26 | 2 | -7 | 2892
O=C(Cn1c(=O)n(-c2ccccc2)c(=O)c2sccc21)N1CCCC1 | -9 | 1.7 | 8 | 10 | -6 | -7 | 23839*
COc1ccc([N+](=O)[O-])cc1NC(=O)C(C)OC(=O)/C=C/c1ccco1 (centres undefined) | -11 | 4.1 | 7 | -3 | -8 | -10 | 2032
Cn1c(=O)oc2cc(S(=O)(=O)NCCC(=O)N3CCN(c4ccccc4F)CC3)ccc21 | 0 | 2.1 | 7 | 1 | 1 | 3 | 5642
C=CCc1cc(OC)ccc1OCCOCCN1CCc2ccccc2C1 | -16 | 6.2 | 1 | 5 | 2 | 8 | 4738
CCOC(=O)/C(C#N)=C/Nc1ccccc1NS(=O)(=O)c1ccc(C)c(C)c1 | -6 | 2.5 | 15 | -9 | 0 | -6 | 5046
Fc1ccc2c(c1)C(c1ccncc1)=NNC(c1ccc(Br)cc1)=N2 | -12 | 0.9 | -3 | 0 | -4 | 4 | 2493
O=C(O)CCCn1c(=O)c2cccn2c2ccc(F)cc21 | -21 | 3.1 | -2 | 5 | 7 | 0 | 3257
CSCCC(NC(=O)c1ccccc1)C(=O)N/N=C(\C)c1ccccc1 (centres undefined) | -11 | . | -6 | . | . | . | 9045
COc1ccc(CCNC(=O)c2cc3cccc(OC)c3oc2=O)cc1OC | -8 | 3.6 | 4 | -2 | 18 | 8 | 3829
O=C(Nc1ccccc1)c1sc2cc(C(F)(F)F)cnc2c1-c1cccs1 | -19 | 0.2 | -1 | 10 | . | . | 2636
Cc1ccc2c(c1)c1ccc3c(c1n2C)C(=O)C=CC3=O | -5 | 3.2 | . | -7 | 4 | 5 | 2831

# Shown with values under each structure: two of the compounds above
# The line under a structure holds: PrP 5UTR inh | Sa RN4220 lethal | BJeLR viability | Sa ugtP lethal | Mtb hypoxia inh | Mtb hypoxia inh growth | Bead autofluor
> COc1ccc([N+](=O)[O-])cc1NC(=O)C(C)OC(=O)/C=C/c1ccco1 (centres undefined)
  -11 | 4.1 | 7 | -3 | -8 | -10 | 2032
> Cn1c(=O)oc2cc(S(=O)(=O)NCCC(=O)N3CCN(c4ccccc4F)CC3)ccc21
  0 | 2.1 | 7 | 1 | 1 | 3 | 5642

# (more compounds)
Compound | PrP 5UTR inh | Sa RN4220 lethal | BJeLR viability | Sa ugtP lethal | Mtb hypoxia inh | Mtb hypoxia inh growth | Bead autofluor
CCOc1ccc2oc(C(=O)N(C)CC(=O)Nc3ccc(OCC)c(OCC)c3)c(C)c2c1 | -2 | 2.4 | -13 | 9 | 4 | 1 | 5269
COc1cccc(NC(=O)C2CCN(S(=O)(=O)c3ccc4c(c3)CC(C)N4C(C)=O)CC2)c1 (centres undefined) | -12 | -0.3 | -2 | 9 | -5 | 6 | 5566
Cc1ccc(CN2CC(=O)N3C4c5cc(C)ccc5OCC4C(c4ccccc4)[C@]3(C)C2=O)cc1 (some centres undefined) | . | 0.2 | . | 8 | 11 | 9 | .
COc1ccc(C2C3=C(CCCC3=O)Nc3ccc4ncccc4c32)cc1OC (centres undefined) | -23 | 3.4 | -12 | 5 | -4 | 6 | 4201
S=C(NCCc1ccccc1)NN=Cc1cccc(Cl)c1Cl | . | -6.5 | . | -3 | 5 | 4 | .
CCOC(=O)c1c(NC(=O)COC(=O)c2nc(Cl)ccc2Cl)sc(C(=O)N(C)C)c1C | -5 | 2.2 | -1 | 1 | -3 | 10 | 6759
COC(=O)[C@@]1(Cc2ccc(F)cc2)C2c3cc(C(=O)N4CCCC4)n(Cc4ccc(C(F)(F)F)nc4)c3CC2CN1C(=O)c1ccccc1 (some centres undefined) | . | -0.2 | . | -2 | 15 | 18 | .
Cc1c(C(=O)NCc2cccnc2)sc2nc(-c3ccc(F)cc3)cn12 | -24 | -12 | 8 | -1 | 5 | 14 | 6969
O=C(C1CCN(S(=O)(=O)c2cc(Cl)ccc2Cl)CC1)N1CCCC1 | -1 | -1.1 | -4 | 5 | -7 | 8 | 5533
NC(=O)c1ccc(NC(=O)c2cccc3c2OCCCO3)cc1 | -13 | 2.6 | -6 | 3 | 12 | 5 | 3527
CC1(C)C(=O)Nc2ccccc2N1C(=O)COC(=O)COc1ccc(C#N)cc1 | -30 | 1.8 | 1 | 3 | 0 | -5 | 5703
CC(=O)Nc1ccc(N/C=C/C(=O)c2ccc(Br)cc2)cc1 | -32 | 1.4 | 1 | 4 | 2 | -1 | 5914
Cc1ccc(-n2cc3c(-c4cccc(Br)c4)nnc(C)c3n2)cc1 | -19 | 8.3 | -7 | -12 | 9 | -11 | 38801*
COCCNC(=O)CSc1nc2ccccc2c2nc(C)nn12 | -1 | -0.7 | -12 | 0 | -3 | -2 | 4126
O=C(c1cc2nc(-c3ccccc3)cc(C(F)(F)F)n2n1)N1CCN2CCCC2C1 (centres undefined) | -27 | 3.5 | 1 | 23 | 9 | 1 | 6307
COc1ccc(OC)c(NC(=O)c2cc(-c3cc(C)ccc3O)n[nH]2)c1 | -42 | -3.0 | 8 | -7 | 0 | 10 | 4014
Cc1ccc(-c2ccc3nnc(SCC(=O)NCC4CCCO4)n3n2)cc1 (centres undefined) | -30 | 3.2 | -4 | 5 | 9 | 4 | 6081
O=C(NCc1cccnc1)c1ccc(COc2cccc3ccccc23)o1 | -4 | 0.0 | -11 | -4 | . | . | 2809
O=C(NN1C(=O)c2ccccc2C1=O)C1C2CCCCC21 (centres undefined) | -15 | 0.5 | -6 | 4 | 8 | 4 | 6722
COC(=O)C=Cc1ccccc1CN1C(CC(=O)OC)c2ccccc2S1(=O)=O (centres undefined) | . | 6.0 | . | -2 | 9 | 12 | .
COc1ccc(C2=NNC(c3cccnc3)=Nc3ccccc32)cc1 | -14 | 0.5 | 2 | 3 | 4 | 2 | 2147
COc1cc2ccccc2cc1C(=O)NC(=S)Nc1cccc(C(=O)O)c1C | -9 | 4.9 | -12 | 5 | 11 | -7 | 3480
N#Cc1nc(-c2cccs2)oc1NCc1ccc(Cl)cc1 | -16 | -9.3 | -6 | -21 | . | . | 2634
Cc1cc(N2CCN(C(=O)c3cccs3)CC2)c(F)cc1[N+](=O)[O-] | -4 | 9.4 | 1 | 5 | -1 | 11 | 3360

# 17 of these compounds in another layout:
# Results follow in this order: PrP 5UTR inh | Sa RN4220 lethal | BJeLR viability | Sa ugtP lethal | Mtb hypoxia inh | Mtb hypoxia inh growth | Bead autofluor
S=C(NCCc1ccccc1)NN=Cc1cccc(Cl)c1Cl
→ . | -6.5 | . | -3 | 5 | 4 | .
CCOC(=O)c1c(NC(=O)COC(=O)c2nc(Cl)ccc2Cl)sc(C(=O)N(C)C)c1C
→ -5 | 2.2 | -1 | 1 | -3 | 10 | 6759
COC(=O)[C@@]1(Cc2ccc(F)cc2)C2c3cc(C(=O)N4CCCC4)n(Cc4ccc(C(F)(F)F)nc4)c3CC2CN1C(=O)c1ccccc1 (some centres undefined)
→ . | -0.2 | . | -2 | 15 | 18 | .
Cc1c(C(=O)NCc2cccnc2)sc2nc(-c3ccc(F)cc3)cn12
→ -24 | -12 | 8 | -1 | 5 | 14 | 6969
O=C(C1CCN(S(=O)(=O)c2cc(Cl)ccc2Cl)CC1)N1CCCC1
→ -1 | -1.1 | -4 | 5 | -7 | 8 | 5533
NC(=O)c1ccc(NC(=O)c2cccc3c2OCCCO3)cc1
→ -13 | 2.6 | -6 | 3 | 12 | 5 | 3527
CC1(C)C(=O)Nc2ccccc2N1C(=O)COC(=O)COc1ccc(C#N)cc1
→ -30 | 1.8 | 1 | 3 | 0 | -5 | 5703
CC(=O)Nc1ccc(N/C=C/C(=O)c2ccc(Br)cc2)cc1
→ -32 | 1.4 | 1 | 4 | 2 | -1 | 5914
Cc1ccc(-n2cc3c(-c4cccc(Br)c4)nnc(C)c3n2)cc1
→ -19 | 8.3 | -7 | -12 | 9 | -11 | 38801*
COCCNC(=O)CSc1nc2ccccc2c2nc(C)nn12
→ -1 | -0.7 | -12 | 0 | -3 | -2 | 4126
O=C(c1cc2nc(-c3ccccc3)cc(C(F)(F)F)n2n1)N1CCN2CCCC2C1 (centres undefined)
→ -27 | 3.5 | 1 | 23 | 9 | 1 | 6307
COc1ccc(OC)c(NC(=O)c2cc(-c3cc(C)ccc3O)n[nH]2)c1
→ -42 | -3.0 | 8 | -7 | 0 | 10 | 4014
Cc1ccc(-c2ccc3nnc(SCC(=O)NCC4CCCO4)n3n2)cc1 (centres undefined)
→ -30 | 3.2 | -4 | 5 | 9 | 4 | 6081
O=C(NCc1cccnc1)c1ccc(COc2cccc3ccccc23)o1
→ -4 | 0.0 | -11 | -4 | . | . | 2809
O=C(NN1C(=O)c2ccccc2C1=O)C1C2CCCCC21 (centres undefined)
→ -15 | 0.5 | -6 | 4 | 8 | 4 | 6722
COC(=O)C=Cc1ccccc1CN1C(CC(=O)OC)c2ccccc2S1(=O)=O (centres undefined)
→ . | 6.0 | . | -2 | 9 | 12 | .
COc1ccc(C2=NNC(c3cccnc3)=Nc3ccccc32)cc1
→ -14 | 0.5 | 2 | 3 | 4 | 2 | 2147
